# Mtb hypoxia inh: Mtb hypoxia fluorescent reporter inhibition; M. tuberculosis hypoxia-regulated fluorescent reporter, fluorescence; fluorescence inhibition, % (no concentration beside the values); hit rate 0.1% among 300,000; AID 1159583;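 active means 35 to 45% if threefold the growth effect, above 45% if 1.5-fold the growth effect; inactive means the rest, general growth blockers included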;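 further: wells of about 50 µL received 100 nL stock; 0% = vehicle wells and 100% = reference inhibitor wells; whole bacteria with a GFP reporter of the hypoxia response; strong numbers were not always called active; many hits fall short of the cut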
# ugtP null kill: compounds lethal to S. aureus RN4220 ugtP deletion mutant; AID 1259309; OD600 growth, 16 h; some inactives read as strong as hits; hit rate 0.54% among 330,000; growth inhibition, % (concentration not given with the values);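 active means z-score under -3 and OD600 up to 0.15 on both plates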;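 further: plate controls were untreated wells for no effect and antibiotic for full effect; wells of about 80 µL received 100 nL stock; the first replicate is given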
# Sa RN4220 lethal: S. aureus RN4220 growth inhibition. OD600, 16 h. inhibition, % (test concentration not listed). hit rate 0.33% among 330,000. AID 1259311;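 active means z-score of -3 or lower and OD600 up to 0.18 on both plates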;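 further: plate controls were untreated cells for no effect and reference antibiotic for full effect; stock transfer was 100 nL into about 80 µL; one replicate is shown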
# Bead autofluor: flagged as autofluorescent in microsphere protease counterscreen; hit rate 3.1% among 360,000; fluorescence intensity (no concentration beside the values); compound autofluorescence counterscreen, microsphere flow cytometry; active compounds read high;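 active means at least 3 SD above the mean of all compounds, about 16000 in these data; inconclusive means too few beads counted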;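 further: 100 nL of 1 mM stock went into each well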
# PrP 5UTR inh: suppresses PrP 5' UTR mRNA reporter expression. hit rate 0.35% among 340,000. inhibition, % (no concentration beside the values). cell-based PrP 5' UTR mRNA reporter, plate reader;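 active means every replicate at 50% or more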;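 further: 0 = median of the neutral control wells; tested in H4 reporter cells; numbers are from one replicate; inactives centre near -14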
# BJeLR lethal: kills HRASV12-expressing BJeLR cells; BJeLR (HRASV12) viability, CellTiter-Glo ATP luminescence, 48 h; reference of the scale not given here; inhibition, % (concentration not given with the values); hit rate 0.17% among 300,000;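 active means replicate mean above 50%; inconclusive means above 50% but judged a plate artefact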;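 further: 50 nL library stock added to about 25 µL; numbers are from one replicate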
# Mtb hypoxia inh growth: also measured in Mtb hypoxia inh; calls as there; growth inhibition, %; measured here: M. tuberculosis growth (absorbance);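 0% = vehicle and 100% = reference antibiotic; read after six days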
# An asterisk follows results filed as active; ? = inconclusive; · = not tested or not shown.
SMILES,Mtb hypoxia inh,Mtb hypoxia inh growth,ugtP null kill,Sa RN4220 lethal,Bead autofluor,PrP 5UTR inh,BJeLR lethal
Nc1ccc2nc(-c3cccnc3)[nH]c2c1,7,-4,9,2.4,2327,-9,1
CCNC1(C(N)=O)CCN(Cc2ccccc2)CC1,11,9,2,-0.2,2966,4,·
CC(=O)c1c(C)c(C)c2n1CCn1c(C)ccc1-2,3,-1,-1,7.7,5642,-10,-3
CCOc1cc(N2CCOCC2)c(OCC)cc1NC(=O)c1ccc2ncsc2c1,2,-4,9,8.3,6093,2,·
Cc1cc(C(=O)NN=C2CC(=O)CC(C)(C)C2)n[nH]1,17,7,-2,7.1,·,·,·
O=C(Cc1cccc2ccccc12)Nc1ccc(Br)cc1C(=O)O,2,-7,38,37,3719,-12,11
CCOC(=O)CSc1nc2cc3c(cc2cc1C#N)OCCO3,1,-2,-2,2.5,4474,3,2
CC(Oc1ccc2ccc(=O)oc2c1)C(=O)NCCCn1ccnc1 (stereo unspecified),4,-2,3,4.4,5577,-13,1
CN(C(=O)Nc1ccc(Cl)cc1)n1cnc2ccccc2c1=O,8,15,-7,-1.2,4551,·,-8
O=S(=O)(c1ccc2c(c1)oc1ccccc12)N1CCOCC1,3,3,8,6.4,6514,-1,-11
CC(C)c1cccc(C(C)C)c1NC(=O)CNCC(O)c1ccccc1 (stereo unspecified),-17,8,1,1.7,4024,8,-7
C=CCn1c(SCC(=O)Nc2cc(C)nn2-c2ccccc2)nnc1C1CCCCC1,-2,3,-3,1.4,23513*,11,8
O=C(CNC(=O)c1cccc(F)c1)NN=Cc1cccs1,15,3,6,4.7,·,·,·
Cc1ccc(S(=O)(=O)N(CC(=O)Nc2ccccc2C(=O)O)c2ccc(Cl)cc2)cc1,-2,3,0,11,2818,-12,-3
O=C(OC(C(=O)NCc1ccccc1)c1ccccc1F)c1ccco1 (stereo unspecified),1,10,-12,1.8,5853,-38,1
Cc1ccc(OC(=O)c2ccccc2P(=O)(O)O)cc1,2,5,3,1.7,9210,-26,-2
C=CCN(c1ccc(F)cc1)S(=O)(=O)c1cc(C(=O)NC2CCC(O)CC2)ccc1Cl (stereo unspecified),-6,-3,-6,-7.1,6419,10,·
Cc1ccc(N=Nc2ccc(O)c3ncccc23)cc1C,6,11,-8,15,1845,18,26
COc1ccc(Cc2nc(C(=O)Nc3ccc(Cl)cc3)cs2)cc1,·,·,22,-9.9,4405,-11,6
CCC(=O)NC(=S)Nc1cccc(NC(=O)c2ccccc2C)c1,1,5,8,13,4459,-6,2
O=C(NC1CCCCC1)c1ccc(CNc2c(N3CCOCC3)c(=O)c2=O)cc1,3,12,3,1.7,5714,-31,1
COc1cc(C=NNC(=Nc2ccc(C)cc2)c2nc3ccccc3s2)ccc1O,3,10,-23,-1.7,·,·,·
CC1CCCCC1NC(=O)COC(=O)c1ccc(S(=O)(=O)N2CCOCC2)cc1 (stereo unspecified),·,·,1,1.5,4215,-37,-2
COc1cc(C(CCN2CCCC2)c2c(OC)cc(OC)c3c(C)cc(=O)oc23)cc(OC)c1OC (stereo unspecified),17,7,3,5.9,3157,-20,4
COc1ccc(N2CCN(Cc3nc(N)nc(N4CCCc5ccccc54)n3)CC2)cc1,3,1,5,1.4,3223,-13,1
CCn1c(C)nc([N+](=O)[O-])c1C(=O)O,14,6,0,8.6,4578,-24,2
CCOC(=O)c1c(N=CC2C(=O)CC(C)(C)CC2=O)sc2c1CCCC2,10,7,0,3.9,·,·,·
Cc1ccc(Cl)c(OCC(=O)NCC(c2cccs2)N2CCOCC2)c1 (stereo unspecified),-3,9,-6,2.8,5619,-6,3
CC(=NNC(=O)c1cc(C)oc1C)c1ccc2c(c1)OCO2,1,2,-5,-1.6,·,·,·
CSCC(=O)N1CCCC(CO)(Cc2ccccc2C)C1 (stereo unspecified),7,2,2,5.9,3951,-33,-1
CC(C)(C)c1ccc(Cn2cnc(-c3ccc([N+](=O)[O-])cc3)c2)cc1,0,13,-41,0.0,8625,-97,1
Cc1ccc(NC(=O)CC(N)=S)cc1,-5,1,-4,3.7,6168,-18,2
CC1CCCCC12NC(=O)N(CC(=O)Nc1ccc(N3CCOCC3)cc1)C2=O (stereo unspecified),4,-1,2,-2.1,2375,-8,0
OC1(c2ccc(Br)cc2)CCN(Cc2cccc(Br)c2)CC1,10,10,0,1.3,3627,-9,-7
O=C(NN1CCOCC1)NC12CC3CC(CC(C3)C1)C2,4,-7,1,6.0,5833,-2,-4
CSCC[C@H](NC(=O)NCCc1ccc(F)cc1)C(=O)O,9,2,4,-6.8,2505,-10,-5
COc1ccc(NC(=O)CN(C)C(=O)CCSc2ccc(F)cc2)cc1,-5,11,-3,-1.8,?,-7,·
CC(C)(C)NC(=O)C(c1ccncc1)N(Cc1cccs1)C(=O)Cn1nnc(-c2ccc(F)cc2)n1 (stereo unspecified),·,·,2,-0.9,3658,-36,7
C=CCNc1ccc(F)c(F)c1N1CCCCCC1=O,12,2,3,-4.9,2493,-13,-5
O=C1C=C(c2cccnc2)CCC1,22,4,3,4.0,3517,-7,-12
COc1ccc(C(C(=O)NCC2CCCO2)N(C(=O)CNC(=O)c2ccco2)c2cc(C)ccc2C)cc1OC (stereo unspecified),1,12,6,1.8,3709,2,2
COc1ccc(C=Nn2c(COc3ccccc3)n[nH]c2=S)cc1OC,-4,1,9,0.8,·,·,·
c1ccc(-c2ccc(-c3nc(-c4cccnc4)no3)cc2)cc1,10,15,-3,-0.1,5961,-43,-3
O=C(c1cc(-c2ccncc2)nc2ccc(Cl)cc12)N1CCN(C(=O)C2CCCO2)CC1 (stereo unspecified),·,·,-1,0.4,5169,-6,2
CCOc1cc(S(=O)(=O)N2CCC(C(N)=O)CC2)ccc1F,6,13,5,3.7,9920,-3,1
CCn1c(C(=O)N2CCC(C(=O)NCc3ccc(OC)cc3)CC2)cc2sccc21,10,11,10,-0.5,5347,-3,3
O=C(O)CCC(=O)Nc1sc2c(c1C(=O)Nc1cccc3ccccc13)CCCCC2,10,-9,-3,3.3,6847,-16,3
O=C(c1ccco1)N1CCN(C(=O)N2CCOCC2)CC1,12,10,3,1.2,10019,-25,2
Cc1nn(-c2ccccc2)c(C)c1C(=O)NCc1ccc(F)cc1,10,4,0,6.1,9725,2,5
CCOc1ccccc1NC(=O)NC1CC2CCCC(C1)N2Cc1nnnn1CCc1ccccc1 (stereo unspecified),7,1,19,1.4,3849,-3,6
CN(C)S(=O)(=O)c1ccc(C(=O)NCc2ccccc2)cc1,5,10,-3,6.7,2441,-11,5
CCOc1ccc(CCNC(=O)COC(=O)c2cccnc2Cl)cc1OCC,-5,-3,5,3.2,5063,-13,-7
O=C(O)CSC1CC(=O)N(c2cccc(Cl)c2)C1=O (stereo unspecified),7,-1,5,2.0,10523,-15,-2
CCOC(=O)c1sc(N=NC2=C(O)CC(C)(C)CC2=O)c(C(=O)OCC)c1C,4,18,-3,0.5,4727,-82,-1
CCN(CC)C(=O)c1cccc(NC(=O)C2CCN(C(=O)c3cccs3)CC2)c1,0,20,3,3.0,4074,4,·
COc1ccc(C(=O)OCC(=O)N2CCN(S(=O)(=O)c3ccc(C)cc3)CC2)cc1[N+](=O)[O-],2,-1,-4,0.9,3936,-24,·
CCOc1cc(CNCc2ccncc2)cc(Br)c1OCc1ccc(F)cc1,14,13,94*,12,20403*,-12,3
COc1ccc(CN2CCN(C(=O)Cn3ncn4cccc4c3=O)CC2)c(OC)c1OC,·,·,17,5.0,5904,-10,-6
CCOC(=O)Cn1c(CN2CCc3ccccc3C2)nc2c1c(=O)n(C)c(=O)n2C,-1,13,-6,-1.4,5541,-8,14
CCOC(=O)c1ccc(N=c2sc(C(=O)OC)cc(=O)n2C2CC2)cc1,8,18,-4,11,3616,8,-7

# Whole records from above. Order of screens: Mtb hypoxia inh	Mtb hypoxia inh growth	ugtP null kill	Sa RN4220 lethal	Bead autofluor	PrP 5UTR inh	BJeLR lethal
# CC(Oc1ccc2ccc(=O)oc2c1)C(=O)NCCCn1ccnc1 (stereo unspecified) in the list: 4	-2	3	4.4	5577	-13	1
# O=C(Cc1cccc2ccccc12)Nc1ccc(Br)cc1C(=O)O in the list: 2	-7	38	37	3719	-12	11
# CSCC(=O)N1CCCC(CO)(Cc2ccccc2C)C1 (stereo unspecified) in the list: 7	2	2	5.9	3951	-33	-1

# (next part)
SMILES,Mtb hypoxia inh,Mtb hypoxia inh growth,ugtP null kill,Sa RN4220 lethal,Bead autofluor,PrP 5UTR inh,BJeLR lethal
CCCCC(=O)Nc1nnc(-c2ccco2)o1,-2,-6,4,10,3176,-6,-21
O=C(O)c1ccccc1C(=O)NNc1ccc(Cl)cc1Cl,15,6,-12,3.3,2583,-18,0
COC(=O)C(O)(NC(=O)OCc1ccccc1)C(F)(F)F (stereo unspecified),2,3,44,55,15628,-17,4
Cc1cc(Nc2cccc([N+](=O)[O-])c2)c2cccc(C)c2n1,3,9,1,-1.0,·,-17,19
COc1ccccc1-c1nc2ccccc2c(=O)n1O,1,-7,4,2.1,3861,-13,3
O=C(N1CCCCCC1)N1CCN(S(=O)(=O)c2ccccc2)CC1,7,5,-1,3.1,11783,-8,-8
CCOC(=O)c1c(NC(=S)NCc2ccccc2)sc2c1CCN(C(=O)OCC)C2,8,4,2,14,·,-10,-5
Cc1cc(C)cc(CC2CC(=O)N(c3ccc(Cl)cn3)C2=O)c1 (stereo unspecified),4,11,2,3.0,22513*,-12,-3
CC(C)c1nc(CNC(=O)c2cc(COc3c(F)cccc3F)on2)cs1,15,6,13,-0.3,2326,-16,-2
Cc1nc(-c2ccc(NC(=O)c3ccco3)cc2)cs1,-10,-4,-3,3.1,3660,78*,17
CSc1nc(C(=O)N2CCc3c([nH]c4ccccc34)C2c2ccccn2)cs1 (stereo unspecified),4,-5,-11,3.3,2495,-22,5
COc1ccc(Cl)cc1S(=O)(=O)N1CCC(C(=O)NCCc2ccccc2)CC1,12,10,11,1.9,3802,-20,1
COc1ccc2oc(C(=O)OCC(=O)Nc3ccc(C(=O)N(C)C)cc3)c(C)c2c1,11,0,8,5.8,5983,-31,-21
O=C(Cn1cnc([N+](=O)[O-])n1)N/N=C/c1cc(Cl)ccc1O,·,·,·,·,2167,-32,0
O=C(NCCc1ccccc1)C(=O)NC1CCCCC1,3,5,3,3.2,8025,-29,4
CC1CC(C)CN(C(=O)COC(=O)c2ccc(Cl)nc2)C1 (stereo unspecified),8,1,8,0.7,6299,-10,·
COC(=O)c1cc(Nc2cc(C)c3ccc(O)cc3n2)cc(C(=O)OC)c1,11,-5,6,5.4,4642,-30,-6
N#C/C(=C\c1ccc(-c2ccccc2[N+](=O)[O-])o1)C(=O)N1CCOCC1,10,17,6,5.0,3717,-17,-4
COc1cc(C=NNC(=O)CCn2c3ccccc3c3ccccc32)cc(OC)c1OC,9,3,-24,6.4,·,·,·
COc1ccc(-n2c(=O)c3ccccc3n(CC(=O)NC3CCCCC3)c2=O)c(OC)c1,16,10,-2,6.1,3721,-27,-10
COc1ccccc1C(=O)COC(=O)CN1C(=O)c2ccccc2C1=O,-4,-14,6,0.0,5814,-11,3
COc1ccccc1CNC(=O)CN1CCC(NC(=O)c2ccccc2F)CC1,9,9,-1,7.5,4283,-32,0
CCOC(=O)c1ccc(NC(=O)CSc2nc(N3CCOCC3)nc(N3CCOCC3)n2)cc1,4,6,0,7.1,5437,-1,-2
COc1ccc(NC(=O)COC(=O)CCNS(=O)(=O)c2ccccc2)cc1OC,3,4,7,4.5,4253,6,-10
CCN(CC(=O)Nc1ccc(NC(C)=O)cc1)C(=O)C1CCCN(C(=O)c2ccc(Cl)cc2)C1 (stereo unspecified),3,3,4,1.6,7862,-7,·
O=C(COC(=O)c1cc[n+]([O-])cc1)Nc1ccc([N+](=O)[O-])cc1,-9,-8,8,7.8,4547,-15,6

# An excerpt from above in order of molecular weight, rising:
SMILES,Mtb hypoxia inh,Mtb hypoxia inh growth,ugtP null kill,Sa RN4220 lethal,Bead autofluor,PrP 5UTR inh,BJeLR lethal
CCCCC(=O)Nc1nnc(-c2ccco2)o1,-2,-6,4,10,3176,-6,-21
O=C(CNC(=O)c1cccc(F)c1)NN=Cc1cccs1,15,3,6,4.7,·,·,·
CC(Oc1ccc2ccc(=O)oc2c1)C(=O)NCCCn1ccnc1 (stereo unspecified),4,-2,3,4.4,5577,-13,1
COc1ccc(-n2c(=O)c3ccccc3n(CC(=O)NC3CCCCC3)c2=O)c(OC)c1,16,10,-2,6.1,3721,-27,-10

# Assay outcomes from PubChem.
